Screening data (PubChem BioAssay)
VDR inh: inhibitors of human vitamin D receptor. VDR-SRC2-3 peptide fluorescence polarization, 2 h. P11473. Potency, µM, without a hit: max response, negative = inhibition, most hits filed as inhibitors. AID 504847. 400,000 tested, 0.93% active; active means well fitted inhibition curve with a large enough effect; inconclusive means small, poorly fitted or top-dose-only effect, or another doubt; inactive means no such curve, though single readings can be large or run the other way; further: series mostly up to about 120 µM
Target sequence (P11473 whole entry, looked up): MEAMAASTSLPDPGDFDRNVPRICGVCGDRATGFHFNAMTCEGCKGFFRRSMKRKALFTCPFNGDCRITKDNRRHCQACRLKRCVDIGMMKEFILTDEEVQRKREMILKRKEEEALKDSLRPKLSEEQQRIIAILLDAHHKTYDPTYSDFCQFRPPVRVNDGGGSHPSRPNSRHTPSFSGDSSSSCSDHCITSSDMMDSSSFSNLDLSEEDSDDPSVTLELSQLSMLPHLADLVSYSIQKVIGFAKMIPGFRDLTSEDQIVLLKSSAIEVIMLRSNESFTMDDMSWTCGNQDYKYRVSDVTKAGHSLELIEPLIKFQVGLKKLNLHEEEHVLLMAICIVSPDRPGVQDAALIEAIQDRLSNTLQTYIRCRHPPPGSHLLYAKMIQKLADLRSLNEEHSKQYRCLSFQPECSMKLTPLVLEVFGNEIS
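Inhibition of the VDR/SRC2-3 peptide interaction is quantified by fluorescence polarization. Compounds (23 nl, pintool) incubate with the reagents for 2 hours at ambient room temperature.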
An asterisk follows results filed as active; ? = inconclusive; & = joins results of further samples. On the % scale 0 is the no-effect control and ±100 the full control effect; potency means the concentration at half of the fitted maximal effect. Not all compounds are listed; count on the stated rates, not on these rows.

VDR inh,canonical_smiles
1%,Cc1ccc(CC(NC(=O)c2ccccc2)C(=O)NC(C)C(=O)O)cc1 (centres undefined)
25%,Cn1c(-c2cccs2)[n+](C)c2ccccc21
3%,CC(=O)c1ccc(C2CC34CNS(=O)(=O)C3CC2O4)cc1 (centres undefined)
-14%,CCC(=O)N1c2ccc(S(=O)(=O)CCC(=O)NCc3ccccc3OC)cc2CC1C (centres undefined)
-12%,CCN(CC(=O)NC(C)C)Cc1nc2c(Br)cc(Br)cc2c(=O)[nH]1
-17%,COc1ccc(C(c2sc3nc(C)nn3c2O)N2CCC(C(N)=O)CC2)cc1OC (centres undefined)
4%,CCCCn1c(=N)n(CC(=O)c2ccc(Br)s2)c2ccccc21
-23%,CC(C)N(Cc1nccn1C)C(=O)c1ccc2oc(CCCc3ccccc3)nc2c1
-6%,O=C(CNC(=O)c1cccs1)OCC(=O)c1ccccc1Cl
-4%,O=C1c2ccc(Oc3ccc4c(c3)C(=O)N(CCCO)C4=O)cc2C(=O)N1CCCO
-5%,CCCNS(=O)(=O)c1cc2c3c(c1)C(C)C(=O)N3CCC2 (centres undefined)
-11%,CCC(C)(C)NC(=O)C(c1ccccc1F)N(C(=O)c1ccn[nH]1)c1ccccc1 (centres undefined)
26%&9%,COc1ccc2c(c1)cc1c(=O)n(CC(=O)NCCCOC(C)C)nc(C)n12
-10%,COc1ccc(NS(=O)(=O)c2cccc(C(=O)NN=C(C)c3ccco3)c2)cc1
6%,CCOC(=O)N1CCN(C(=O)CN(c2ccc(Oc3ccccc3)cc2)S(C)(=O)=O)CC1
8%,O=C(CNC(=O)/C(=C\c1ccc(F)cc1)NC(=O)c1ccccc1)OCc1ccccc1
4%,O=C(CCl)Nc1ccccc1Sc1ccccc1
-2%,CCC(CC)NC(=O)COC(=O)CCC(=O)c1ccc(Cl)cc1
-7%,Cc1ccc(-c2nnn(CC(=O)Nc3nnc(C(C)C)s3)n2)cc1
-7%,Cn1nc(-c2ccccc2)c(-c2nc(-c3cccc(C(F)(F)F)c3)no2)c1Cl
15%,O=C(N/N=C/c1ccco1)c1ccncc1
-9%,Cc1cnc(C(=O)Nc2nnc(C3CC3)s2)cn1
-16%,COc1ccc(OCC(O)CNC(=O)Nc2ccc(C(C)(C)C)cc2)cc1 (centres undefined)
3%,CCc1ccc(NC(=O)C(C)n2nc(C)c([N+](=O)[O-])c2C)cc1 (centres undefined)
7%,COc1ccc(-c2nnc3c4ccccc4c(C)nn23)cc1
-2%,O=C(C1CCCO1)N1CCN(C(c2ccccc2)c2ccccc2)CC1 (centres undefined)
-4%,CN(C(=O)CSc1nnc(C(F)(F)F)n1N)C1CCS(=O)(=O)C1 (centres undefined)
15%,CC(OC(=O)C(C)Oc1ccccc1)C(=O)Nc1ccc(S(=O)(=O)N2CCCCC2)cc1 (centres undefined)
-19%,CC1(C)Oc2ccc(NC(=O)C3COc4ccccc4O3)cc2O1 (centres undefined)
-4%,Cc1ccccc1OCC(=O)Nc1ccccc1C(=O)NC1CC1
-5%,COc1ccc(CCNC(=O)CSc2nnc(CNc3ccc(Cl)cc3)o2)cc1OC
-17%,CCc1cc(C(=O)c2ccccc2OC)c(N)s1
8%,Cc1ccc2nc(-c3sc4nc(C)cc(C)c4c3N)[nH]c2c1
5%,O=C(NCc1ccccc1)c1ccc(NC(=O)c2nsc3ccccc23)cc1
-2%,O=C(CSc1ncnc2ccccc12)Nc1cccc(S(=O)(=O)N2CCOCC2)c1
-24%,CN(CC(=O)Nc1ccc(Cl)c(C(F)(F)F)c1)C(=O)CCCNC(=O)c1ccc(Cl)cc1
8%&6%,Cc1cc(-c2ccc(C)c(S(=O)(=O)NCCc3ccc(S(N)(=O)=O)cc3)c2)on1
-9%,N=c1sccn1CC(=O)Nc1cccc(Oc2ccccc2)c1
1%,COc1ccc(/C=C/c2nc(N)nc(-c3ccccc3O)n2)cc1OC
?,CN(C)N1C(N)=C(C#N)C(c2ccsc2)C2=C1CCCC2=O (centres undefined)
2%,Cc1cn2c(=O)c3ccccc3nc2n2c(=O)c3ccccc3nc12
6%,Cc1ccc(NC(=O)CSc2nc(C)cc(C)c2C(=O)Nc2cccc(C)c2)cc1
8%,Cc1cccc(C(=O)OCC(=O)N2CCc3ccccc3C2)c1O
2%,CCOC(=O)C1Cn2c(nc3c(c2=O)C(C)(CC)Cc2ccccc2-3)S1 (centres undefined)
-7%,CC(Sc1nc(N)cc(N)n1)C(=O)NCCC1=CCCCC1 (centres undefined)
-4%,O=C(C1c2ccccc2C(=O)N2CCc3ccccc3C12)N1CCN(Cc2ccccc2)CC1 (centres undefined)
79µM*,Cc1ccc(/C=C2/NC(=O)N(Cc3ccccc3F)C2=O)o1
7%,Cc1nc(=O)c(-c2ccccc2)c(C)n1CCO
-4%,COc1ccc(NC(=O)CCC(=O)OCc2ccc(C(=O)Oc3ccc(Cl)cc3)cc2)cc1
-5%,Nc1[nH]c(=O)nc(Nc2ccccc2)c1N=O

(further entries)
VDR inh,canonical_smiles
-10%,COC(=O)c1ccccc1NC(=O)c1c(O)c2c([nH]c1=O)CCCC2
14%,O=C(CN1CCCCC1)N1CCCc2ccccc21
14%,Cc1ccccc1C(=O)Nc1ccccc1C(=O)OCc1cc(=O)n2ccsc2n1
2%&8%,COc1ccc(N(CC(=O)N2CCN(c3cccc(Cl)c3)CC2)S(=O)(=O)c2c(C)noc2C)cc1
-9%,COc1cc2c(cc1NC(=O)COc1ccc(Cl)cc1)oc1ccccc12
?,O=C(Nc1ccccc1C(=O)O)c1cccc(NS(=O)(=O)c2ccc(Br)cc2)c1
7%,Cc1ccc(S(=O)(=O)c2nc(-c3cccc(Cl)c3)oc2NCc2ccccc2)cc1
-1%,CN(c1ccccc1)S(=O)(=O)c1ccc(C(=O)NCCc2ccc(F)cc2)cc1
-8%,Cc1cccc(C)c1NC(=S)Nc1ccc(F)cc1
-5%,O=C(CC1N=C2c3ccccc3N=C(SCc3cccc(F)c3)N2C1=O)NCc1ccc2c(c1)OCO2 (centres undefined)
-1%,Cc1nc2cccnc2n1-c1cccc(C(=O)NCc2ccc(OC(C)C)cc2)c1
-2%,O=C(CC1CCCC1)NNC(=O)c1ccc(Br)cc1
3%,O=C(NC1=NCCS1)c1ccc(N2CCCC2=O)cc1
-16%,COCCNC(=O)c1ccc(CS(=O)(=O)c2ccc(OC)cc2)o1
6%,CC(C)(C)[C@@H]1COC(=O)[C@H](Cc2ccc(F)cc2)CC/C=C\C[C@@H](CC(=O)N(CCO)Cc2ccccc2)C(=O)N1
5%,Cc1ccccc1OCC(=O)N(Cc1nc(-c2ccccc2)no1)C(C)C
4%,CN1C(=O)OC2(C)CCc3ccccc3C12C (centres undefined)
-5%,CCOC(=O)c1csc(Nc2nc3ccc(F)cc3s2)n1
7%,COc1ccc(CCN2CCC(CNC(=O)c3cnn(-c4ccc(C)cc4)c3C3CCN(C(=O)OC(C)(C)C)CC3)CC2)cc1
-14%,Cn1c(=O)c(Sc2ccccc2)c(O)c2ccccc21

Part of the list above in order of heavy-atom count, smallest number first.
VDR inh,canonical_smiles
4%,CN1C(=O)OC2(C)CCc3ccccc3C12C (centres undefined)
-2%,O=C(CC1CCCC1)NNC(=O)c1ccc(Br)cc1
3%,O=C(NC1=NCCS1)c1ccc(N2CCCC2=O)cc1
-5%,CCOC(=O)c1csc(Nc2nc3ccc(F)cc3s2)n1
-16%,COCCNC(=O)c1ccc(CS(=O)(=O)c2ccc(OC)cc2)o1
5%,Cc1ccccc1OCC(=O)N(Cc1nc(-c2ccccc2)no1)C(C)C
?,O=C(Nc1ccccc1C(=O)O)c1cccc(NS(=O)(=O)c2ccc(Br)cc2)c1
7%,Cc1ccc(S(=O)(=O)c2nc(-c3cccc(Cl)c3)oc2NCc2ccccc2)cc1
2%&8%,COc1ccc(N(CC(=O)N2CCN(c3cccc(Cl)c3)CC2)S(=O)(=O)c2c(C)noc2C)cc1
-5%,O=C(CC1N=C2c3ccccc3N=C(SCc3cccc(F)c3)N2C1=O)NCc1ccc2c(c1)OCO2 (centres undefined)
6%,CC(C)(C)[C@@H]1COC(=O)[C@H](Cc2ccc(F)cc2)CC/C=C\C[C@@H](CC(=O)N(CCO)Cc2ccccc2)C(=O)N1
7%,COc1ccc(CCN2CCC(CNC(=O)c3cnn(-c4ccc(C)cc4)c3C3CCN(C(=O)OC(C)(C)C)CC3)CC2)cc1

(listing goes on)
VDR inh,canonical_smiles
-2%,O=C(CCN1C(=O)/C(=C\c2ccccc2)SC1=S)NNC(=O)c1ccncc1
-12%,CC(=O)N1N=C(c2ccccc2)CC1c1ccccc1[N+](=O)[O-] (centres undefined)
-1%,CCCc1cc(=O)[nH]c(SCC(=O)Nc2cc(S(=O)(=O)N3CCCCC3)ccc2Cl)n1
-20%,COc1ccc(-c2nc(N)ncc2-c2ccc(OC)c(OC)c2)c(O)c1
?,O=C(CSCc1ccco1)Nc1cc(C(F)(F)F)ccc1N1CCOCC1
6%,Brc1nnc2n1-c1ccccc1Sc1ccccc1-2
1%,O=C(CN1CCC(NC(=O)c2ccco2)CC1)Nc1cccc2ccccc12
7%,CC(C)(C)C(=O)Nc1ccc(C(=O)N/N=C/c2ccccc2OC(=O)c2ccc(Cl)cc2Cl)cc1
-2%,COc1cccc(C(=O)/C=C2\Sc3ccccc3N2C)c1
-7%,Cc1cccc(-n2c(Cc3cc(=O)[nH]c(=O)[nH]3)nnc2SC(C)C)c1
?,CCOc1ccc(C(Nc2cccnc2)c2cc(Cl)c3cccnc3c2O)cc1 (centres undefined)
-11%,O=C(CCl)N(O)c1ccc(C=Cc2ccccc2)cc1
?,CCCCCCNC(=O)c1cc(-c2ccco2)nc2ccccc12
14%,COc1cc(C)c(-c2cc(C(=O)O)c(C)o2)cc1C(C)C
-13%,Cc1ccc(C(=O)CSc2nc3ccc(C(=O)NCCN4CCCCC4)cc3c(=O)[nH]2)cc1
8%,Cc1ccc(CNC(=O)C2CCCN(S(=O)(=O)c3ccc(-n4cnnn4)cc3)C2)cc1 (centres undefined)
6%,Cc1ccnc(SCC(=O)c2cccs2)n1
-19%,CC(C)CN1CCC(=O)N([C@H](CSc2ccc(Br)cc2)c2ccccc2)CC1
?,Cc1cccc(COc2ccc(/C=N/NC(=O)c3nnn(-c4nonc4N)c3C)cc2)c1
13%,Cc1ccc(Sc2ncccc2C(=O)NCc2cc([N+](=O)[O-])ccc2O)c(C)c1
-10%,Cc1nc(NC(=O)c2ccccc2[N+](=O)[O-])sc1C(=O)N(C)C
13%,CC(C)C(c1nnnn1Cc1ccc2c(c1)OCO2)N1CCN(C)CC1 (centres undefined)
0%,CCN(CC(=O)Nc1ccc2c(c1)OCCO2)C(=O)CN1C(=O)NC(C)(c2ccc(C)cc2)C1=O (centres undefined)
-11%,N#CC(Nc1ccccc1)c1ccccc1OCc1ccccc1 (centres undefined)
-2%,CCc1ccccc1NC(=O)c1cc(-c2ccc(Cl)s2)nc2ccccc12
-12%,Fc1ccc(-[n+]2nc(Nc3ccccc3)sc2-c2c(Cl)cccc2Cl)cc1
-4%,CC(=O)OC1CCC2(C)C(CCC3C2CC(=NO)C2(C)C(C(C)OC(C)=O)CCC32)C1 (centres undefined)
5%,Cc1nc(C(=O)NCC(=O)c2ccc(Cl)cc2)c(C(F)(F)F)o1
12%,CCN(C(=O)CSc1cc(C)c2ccccc2n1)c1c(N)n(Cc2ccccc2)c(=O)[nH]c1=O
-15%,CCN(CC)CC#CCC(O)(c1ccccc1)C1CCCCC1 (centres undefined)

4 compounds picked at random from those above:
VDR inh,canonical_smiles
0%,CCN(CC(=O)Nc1ccc2c(c1)OCCO2)C(=O)CN1C(=O)NC(C)(c2ccc(C)cc2)C1=O (centres undefined)
13%,CC(C)C(c1nnnn1Cc1ccc2c(c1)OCO2)N1CCN(C)CC1 (centres undefined)
-15%,CCN(CC)CC#CCC(O)(c1ccccc1)C1CCCCC1 (centres undefined)
-11%,N#CC(Nc1ccccc1)c1ccccc1OCc1ccccc1 (centres undefined)

The list continues:
VDR inh,canonical_smiles
-4%,N#Cc1c[nH]n2c(NC3CCCC3)c(-c3ccc(Br)cc3)nc12
-1%,O=C(COc1ccc2c(c1)OCO2)Nc1nncs1
-12%,CCOc1ccc(NC(=O)c2c(NC(=O)c3cccs3)sc3c2CCC(C(C)(C)C)C3)cc1 (centres undefined)
6%,Cc1cccc2c(N)c3c(nc12)CCCC3 (tested in a mixture with another compound)
-17%,O=C(Nc1ccc(Cl)c(S(=O)(=O)N2CCOCC2)c1)c1cc2ccccc2oc1=O
2%&1%,O=C(O)c1ccc(Cn2cnc3cccnc32)cc1
9%,CC1CN(C(=O)COC(=O)c2ccc(N)c([N+](=O)[O-])c2)CC(C)O1 (centres undefined)
-15%,Cc1nnc(NC(=O)CSc2ccccc2N)s1
3%,C/C(=N/NC(=O)c1nnn(-c2nonc2N)c1-c1ccccc1)c1ccncc1
-1%,COc1ccc(S(=O)(=O)Nc2cccc(C(C)=O)c2)cc1Br
8%,Cc1ccc(S(=O)(=O)Nc2ccccc2F)cc1C(=O)NCCCN1CCCC1=O
-19%,O=C1[C@H]2[C@@H](c3ccc(Cl)cc3)N3C(=O)N(c4cccc(F)c4)C(=O)[C@@]3(Cc3ccccc3)[C@H]2C(=O)N1C1CCCCC1
-15%&8%,COc1ccc(N2CC(C(=O)NCCS(=O)(=O)N3CCN(c4ccccc4)CC3)CC2=O)cc1 (centres undefined)
11%,O=C(OC1CCCCC1)c1cc2ccccc2oc1=O
4%,Cc1ccc(C(=O)C(C)OC(=O)Cc2n[nH]c(=O)c3ccccc23)cc1 (centres undefined)
-1%,CC(NC(=O)c1ccco1)c1ccc(-n2ccnc2)cc1 (centres undefined)
6%,CCN(CC)C(=S)SCC(=O)Nc1ccc(S(N)(=O)=O)cc1
-8%,C#CCNC(=O)C1=C[C@@H](C2CC2)C[C@@H](OCc2ccc(CO)cc2)O1
0%,CCCOC(=O)C1=C(C)NC2=C(C(=O)CC(C)(C)C2)C1c1cccnc1 (centres undefined)
?,CCOP(=O)(OCC)C(C#N)=C1SCN(c2ccccc2)CS1
-8%,Cc1ccc(NC(=O)C(Cc2ccccc2)NS(=O)(=O)c2ccc3c(c2)c(=O)n(C)c(=O)n3C)c(C)c1 (centres undefined)
